Vaccinia pol inh – vaccinia E9 polymerase processive synthesis inhibitors, primary screen, biochemical, absorbance; Vaccinia virus DNA polymerase (E9) processive complex; in vitro processive DNA synthesis, absorbance read-out; stronger effect = lower value; some inactives read as strong as hits; normalized absorbance, % (concentration not given with the values); 46,000 compounds, 0.94% hits; AID 493162, 2011;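 active = replicate mean up to 90% and picked by the depositor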;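 also: 100% = median of the test wells of a plate; 100 nL library stock went into each well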
* = called active by the depositor. The list is partial; count on the stated rates, not on these rows.

no.	Compound	Vaccinia pol inh
1	CCc1ccc(C2C(C#N)=C(N)Oc3cc4c(cc32)OCO4)cc1 (centres undefined)	99.1
2	COc1ccccc1-c1c(C)nn2c(NCC(OC)OC)cc(C)nc12	102.5
3	Cc1nn(C)c(C)c1CN(C)C(=O)c1cnn2c1NC(c1ccccc1)CC2C(F)(F)F (centres undefined)	104.9
4	CCOc1ccc(-n2ccnc2SCC(=O)Nc2ccc(Cl)cc2)cc1	98.4
5	CC1(c2ccccc2NC(=O)c2cccs2)CC1	103.6
6	CN(C)c1cc(C(F)(F)F)nc2cc(C(C)(C)C)nn12	101.5
7	c1ccc(-c2nnc(SCCC3OCCCO3)o2)cc1	99.8
8	c1ccc(NC2=NCCCCC2)cc1	91.2
9	O=c1c2ccccc2nc(-c2ccccc2)n1/N=C/c1ccccc1O	99.3
10	CCN(Cc1ccccc1)S(=O)(=O)c1c[nH]c(C(=O)OC)c1	101.7
11	CCN1C(=O)C(=Cc2ccc(N3CCOCC3)cc2OC)C(=O)N(CC)C1=S	101.6
12	CC(/C=N/n1c(COc2ccccc2)n[nH]c1=S)=C\c1ccco1	99.0

Nothing new here: 5 of the compounds above.
no.	Compound	Vaccinia pol inh
8	c1ccc(NC2=NCCCCC2)cc1	91.2
9	O=c1c2ccccc2nc(-c2ccccc2)n1/N=C/c1ccccc1O	99.3
10	CCN(Cc1ccccc1)S(=O)(=O)c1c[nH]c(C(=O)OC)c1	101.7
11	CCN1C(=O)C(=Cc2ccc(N3CCOCC3)cc2OC)C(=O)N(CC)C1=S	101.6
12	CC(/C=N/n1c(COc2ccccc2)n[nH]c1=S)=C\c1ccco1	99.0

More compounds.
no.	Compound	Vaccinia pol inh
13	FC(F)(F)c1cnc(-c2cnc(-c3cccnc3)nc2)c(Cl)c1	94.8
14	O=C1CCN(Cc2ccccc2)C(=O)N1	99.8
15	CCOC(=O)Cc1c(-c2ccccc2)c2cc(Cl)ccc2[nH]c1=O	99.8
16	Cc1n[nH]c(C)c1-c1ccccc1O	99.9
17	CC(C)(C)C(=O)C(Cc1c(F)cccc1Cl)C(=O)C(C)(C)C	98.9
18	CCOC(=O)C1CCN(S(=O)(=O)c2ccc(N3C(=O)CC4(CCCC4)C3=O)c(Cl)c2)CC1	97.8
19	Cc1cccc(NC2=C(n3nnc4ccccc43)C(=O)c3ccccc3C2=O)c1	99.8
20	Cc1ccc2oc(=O)c3cc(C(=O)N(Cc4ccco4)C4CCCCC4)sc3c2c1	101.2
21	c1ccc(-c2csc(Nc3nc(NCc4ccco4)nc(N4CCCCC4)n3)n2)cc1	98.9
22	Cc1cccc(NC(=O)c2nnn(-c3cccc(C(F)(F)F)c3)c2N)c1	101.2
23	Clc1ccsc1-c1ccn[nH]1	90.2
24	CCn1cc(C(=O)Nc2ccc(C(F)(F)F)cc2)c(=O)c2cc(Cl)ccc21	93.7

(cont.)
no.	Compound	Vaccinia pol inh
25	CC(Sc1cccc[n+]1[O-])C(=O)Nc1cccc(Cl)c1 (centres undefined)	105.1
26	CSCCC(N)C(=O)NC(CC(C)C)C(=O)NC(Cc1ccccc1)C(=O)O (centres undefined)	100.3
27	O=C(NCCSc1c[nH]c2ccccc12)C1CCCC1	100.4
28	Cc1cc(Nc2ccc(C(=O)Nc3ccc4c(c3)OCO4)cc2)n2ncnc2n1	102.4
29	Cn1c(CO)cnc1S(=O)(=O)Cc1c(Cl)cccc1Cl	104.2
30	Cc1cc(=O)n2[nH]c(NC(=O)c3cccs3)nc2n1	102.0
31	Cc1ccc(NC2CCCCC2NS(=O)(=O)c2ccccc2)cc1 (centres undefined)	103.1
32	COc1cc(Cc2nnc(C(=O)NC3CCCCCC3)o2)cc(OC)c1OC	103.8
33	CCn1c2ccccc2c2cc(NC(=O)Oc3ccccc3)ccc21	99.8
34	C=C(C)CSC1=C(C#N)C(C)(C)C(C#N)C(=O)N1 (centres undefined)	100.1
35	CN=C1NC(=NC)c2ccccc21	98.2
36	CC(C)C(NC(=O)OCc1ccccc1)C(=O)Oc1ccc2c(=O)c(Oc3ccccc3)coc2c1 (centres undefined)	99.0

Additional compounds follow:
no.	Compound	Vaccinia pol inh
37	CC(NC(=O)c1cccs1)C(c1cccs1)N1CCN(Cc2ccccc2)CC1 (centres undefined)	86.8
38	c1coc(-c2cc(C3CCNCC3)[nH]n2)c1	93.7
39	c1ccc(-c2cnnc(SCc3cn4cccnc4n3)n2)cc1	100.3
40	O=C(NCC12CC3CC(CC(C3)C1)C2)c1ccccc1	98.5
41	O=C(Nc1ccc2c(c1)nc1n2CCCCC1)c1ccc(Br)o1	101.7
42	CC1CN=C(N(Cc2ccccc2Cl)C(=O)Nc2cccc(Cl)c2)S1 (centres undefined)	99.5
43	Cc1ccc2oc(-c3ccccc3)cc(=NCCO)c2c1	48.6*
44	CC1CCC2(CC1)Nc1ccccc1C(=O)N2CCc1ccccc1 (centres undefined)	100.0
45	CCC1Oc2ccc(C)cc2N(CC(=O)NCCCN2CCN(c3ccccc3F)CC2)C1=O (centres undefined)	95.5
46	CCc1ccccc1NC(=O)C1=CC(c2cccc(OC)c2)=NS(=O)(=O)N1C	101.7
47	N#CCn1cnc2c(cnn2-c2ccccc2)c1=O	96.0
48	N=C1S/C(=C/c2ccco2)C(=O)N1c1nccs1	52.4*

New compounds follow:
no.	Compound	Vaccinia pol inh
49	CCC(C)c1ccc(NC(=O)c2ccc(N(CC)CC)cc2)cc1 (centres undefined)	100.2
50	Cn1cccc1Cc1nnc(SCC(=O)Nc2ccc3c(c2)OCO3)n1-c1ccc(F)cc1	98.4
51	N#CCC(=O)c1nsc(Cl)c1Cl	100.0
52	CCC1C(=NO)C(CC)C(c2ccccc2)NC1c1ccccc1 (centres undefined)	100.2
53	Clc1ccc(N2CCCCCCC2)nn1	99.1
54	COC(=O)c1c(C)oc(C)c1S(=O)(=O)NC1CCCCCCCCCCC1	100.4
55	CCN1C(N)=C(C#N)C2(CCNCC2)c2nc(C)oc21	89.4
56	CCCOc1ccc2oc(=O)c3c(c2c1)CCCN3C(=O)CN(C)c1ccc(C)cc1	103.5
57	O=C(O)Cn1cc(Br)c(=O)[nH]c1=O	101.0
58	Cc1nc2ccccn2c1-c1ccnn1C(=O)c1ccc(C(F)(F)F)cc1	100.8
59	O=C(COc1ncnc2ccccc12)NCc1ccccc1	100.0
60	O=C(Nc1ccc(N2CCOCC2)cc1)c1sc2cc(F)ccc2c1Cl	98.2

Additional compounds.
no.	Compound	Vaccinia pol inh
61	CCc1ccc(NC(=O)C2c3ccccc3C(=O)N(C)C2c2cccs2)cc1 (centres undefined)	92.4
62	O=C(O)/C=C/c1cccc(NS(=O)(=O)c2cccc3cccnc23)c1	103.3
63	O=C(O)CSC(=S)c1ccccc1	97.0
64	CCc1ccc(NC(=O)C(C)OC(=O)c2cccnc2Cl)cc1 (centres undefined)	102.7
65	CCS(=O)(=O)N1CCCC(C(=O)NCCc2ccccc2)C1 (centres undefined)	95.8
66	O=C(Nc1ccc(Cl)cc1)N1CCC(C(c2ccccc2)c2ccccc2)CC1	103.0
67	O=C(O)CSc1nc2ccccc2o1	100.6
68	COc1ccccc1-c1cc2ccccc2oc1=O	104.4
69	COC(CNC(=O)c1cc(S(=O)(=O)N2CC(C)CC(C)C2)ccc1F)OC (centres undefined)	99.1
70	Cc1oc(-c2ccc(C(=O)NCCN3CCCC3)cc2)nc1CSc1ccc(Cl)cc1	108.0
71	CN(CC(=O)N1CCc2ccccc21)S(=O)(=O)c1ccc2nc(-c3ccccc3)[nH]c2c1	98.3
72	Nn1c(SCc2ccc(F)c3ccccc23)nc2ccccc2c1=O	99.1

Further results.
no.	Compound	Vaccinia pol inh
73	COC(=O)c1c(-c2ccccc2)csc1NC(=O)CCN1CC(C)OC(C)C1 (centres undefined)	99.8
74	OC(c1ccccc1)c1nc2ccccc2n1-c1ccccc1 (centres undefined)	88.6
75	Cc1ncc([N+](=O)[O-])n1CCO	94.6
76	CN(C)c1nc(Cl)nc(N(C#N)CN2C(=O)c3ccccc3C2=O)n1	100.4
77	Cc1cc(NC(=O)Cc2cccc3ccccc23)n[nH]1	95.8
78	N#CCSc1nnc(-c2cccs2)n1-c1ccccc1	88.8
79	N#C/C(=C/Nc1cccc2ccccc12)c1nc(-c2ccccc2)cs1	100.8
80	O=S(=O)(c1ccccc1)c1nnn2c1nc(Cl)c1ccccc12	93.4
81	NC(=O)COc1ccc(C=C2C(=O)c3ccccc3C2=O)cc1	99.9
82	Cc1n[nH]c(=S)n(/N=C/C=C/c2ccccc2)c1=O	99.7
83	Cc1ccc(S(=O)(=O)NC2c3ccccc3Oc3ccccc32)cc1	100.3
84	COC(=O)CN1C(=O)Cc2ccccc2C1=O	105.9

(listing goes on)
no.	Compound	Vaccinia pol inh
85	CC(C)(C)c1ccc(C(=O)n2cc(Cl)cn2)cc1	99.8
86	CCN(CC)S(=O)(=O)c1ccc(C(=O)N2CCN=C2SC)cc1	96.9
87	CN(C)CCSc1nc2ccccc2[nH]1	106.1
88	Cc1ccc(Cc2nn3c(C(=O)c4cccs4)nn(-c4ccc(Cl)cc4)c3nc2=O)cc1	101.7
89	Cc1ccc(C(=O)OC2=C(c3ccccc3)C(=O)c3ccccc3C2=O)cc1	100.4
90	Nn1c(Cn2ccnc2)nnc1Cn1ccnc1	100.0
91	CC1CC(C)CN(S(=O)(=O)c2ccc(-n3cccn3)cc2)C1 (centres undefined)	89.6
92	CCOc1ccc(-n2c(-c3ccccc3)c[n+]3c2CCC3)cc1	99.8
93	CN(C)c1nc(N(C)C)n(-c2ccccc2)n1	94.6
94	O=C(c1ccccc1)N(c1ccc2oc3c(c2c1)CCCC3)S(=O)(=O)c1ccccc1	100.8
95	CNC(=O)Cn1ncc2c3ccccc3n(Cc3cc(C)ccc3C)c2c1=O	92.1
96	CC(C)CCn1c(CC(C)(C)C)nc2ccccc21	89.5

(listing goes on)
no.	Compound	Vaccinia pol inh
97	COC(=O)c1cccc(N2C(=O)/C(=C\c3cccnc3)SC2=S)c1	101.1
98	CC(C)(CO)NC(=O)c1sc2ccccc2c1Cl	99.9
99	CC(C)c1ccc(C(C)(C)CO)cc1	99.0
100	Oc1c(C(c2ccncc2)N2CCCC2)ccc2cccnc12 (centres undefined)	96.8
101	CC1CCC(NC(=O)c2ccccc2C(=O)O)CC1 (centres undefined)	105.4
102	Cn1c(CC#N)nc2ccccc21	100.1
103	CCNC(=O)Cc1c(OC)ccc2cc(Br)ccc12	99.8
104	CC(C)(C)c1cc(C(=O)CCN2CCCCC2)cc(C(C)(C)C)c1O	100.8
105	COc1ccc(Nc2nc(N)nc(CN3CCCCC3)n2)cc1	100.0
106	O=C(NC1CCCCCC1)C1CC1	100.6
107	CC(=O)N1c2ccccc2C(=O)C1NC(N)=S (centres undefined)	99.8
108	COc1ccc(-n2nc(C(=O)Nc3cc(C)on3)c3c4ccccc4n(C)c3c2=O)cc1Cl	100.0

New compounds follow:
no.	Compound	Vaccinia pol inh
109	CN(C)/C=C(\C=[N+](C)C)c1[nH]ncc1N	98.9
110	N#C/C(=C\c1ccc(O)c(O)c1)C(N)=S	99.8
111	CC1=C(C(=O)N2CCCCC2)C2(CCCCC2)OC1=O	99.3
112	CCN1CCN(C(=O)c2cccc(Nc3nc4ccccc4n4nnnc34)c2)CC1	86.4
113	CCc1cc(=O)oc2c(C)c(OCC(N)=O)ccc12	100.6
114	OCCN1CCN(CC(O)COCc2ccc(Cl)cc2)CC1 (centres undefined)	100.7
115	COc1cc(C(=O)NCC2CCCO2)cc(OC)c1OC (centres undefined)	102.0
116	c1ccc(CN2CC(c3nn[nH]n3)CN(Cc3ccccc3)C2)cc1	88.2
117	COC(=O)c1sc2ccccc2c1NC(=O)c1ccc2c(c1)OCCO2	99.7
118	O=C(CSc1nc2c(c(C(F)(F)F)n1)CCc1ccccc1-2)N1CCCC1	101.2
119	O=C(C1=C(O)C(=O)N(Cc2cccnc2)C1c1ccc(F)cc1)c1cccs1 (centres undefined)	101.3
120	CC(C)Cc1ccc(/C=C/C(=O)N2CCCC2)cc1	99.6

More entries
no.	Compound	Vaccinia pol inh
121	Cn1c(SCC(=O)NCc2ccco2)nnc1-c1c[nH]c2ccccc12	103.6
122	COC(=O)C(NC(=O)c1cn(-c2ccccc2)nc1-c1ccc(Cl)cc1)C(C)C (centres undefined)	108.7
123	COc1cccc(C(=O)C2CC2c2ccc(Cl)cc2)c1 (centres undefined)	94.3
124	CCC(C)NC(=O)c1cc(-c2ccc(F)cc2)no1 (centres undefined)	100.9
125	CCc1cc(C)cc(OCCn2cc(C=C3C(=O)NC(=O)NC3=O)c3ccccc32)c1	100.7
126	O=C(Nc1ccc(F)cc1)c1ccc2ccccc2c1	100.1
127	COc1ccc(CNC(=O)C(NS(=O)(=O)c2ccc3nc(C)sc3c2)C(C)C)cc1 (centres undefined)	102.2
128	Cc1ccc(C(C)C)cc1Oc1cc(Cl)nc(N)n1	99.5
129	COc1ccc(NC(=O)C(c2ccc(OC)cc2)N(C)C(=O)Cc2c[nH]c3ccccc23)cc1 (centres undefined)	99.1
130	CC1CCCCN1C(=O)CSc1nnc(COc2ccc(Cl)cc2)o1 (centres undefined)	95.4
131	CSc1ncc(C(=O)NC2CCCCC2)c(C)n1	111.9
132	N#CCCn1c(=O)oc2cc(Br)ccc21	106.3

Next part.
no.	Compound	Vaccinia pol inh
133	CCC1CCCCN1C(=O)CSc1nc(C)cc(C)n1 (centres undefined)	103.6
134	CCOc1ccc2c(c1)[nH]c(=S)n2C	100.1
135	COc1cccc(NC(=O)c2ccnc(N3CCC(C(=O)O)CC3)c2)c1	110.5
136	CN(C1CCCCC1)S(=O)(=O)c1cc(Cl)ccc1Cl	100.2
137	CC(C)(C)c1ccc(C(=O)Nc2sccc2C(N)=O)cc1	111.0
138	Cc1ccc(C(=O)N2C(=O)C(c3ccccc3)Oc3ccccc32)cc1 (centres undefined)	100.1
139	CCN=C(NCC)SC1CC(=O)N(CCc2ccccc2)C1=O (centres undefined)	98.8
140	CC(=O)Nc1ccc(S(=O)(=O)N2CCCCC2)cc1	99.8
141	O=C(O)CN=Cc1ccccc1O	96.3
142	CCCC(=O)Nc1nc(-c2ccc(Cl)s2)cs1	99.6
